Source: PubChem BioAssay (National Center for Advancing Translational Sciences (NCATS))
CtBP-E1A blk – qHTS Assay for Inhibitors of the CtBP/E1A Interaction; CtBP / adenovirus E1A interaction (AlphaScreen); AlphaScreen GST-E1A/His-CtBP binding, 1536-well; active compounds read low; control for the full effect not named in the record; activity change, % (no concentration beside the values); actives 0.49% (n = 340,000); AID 651724, 2012; in the data active means activity change below about -65%; inconclusive means about -30% to -65%; inactive means above about -30%; also: % is scaled to controls: 0 for no effect and ±100 for the full control effect
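AlphaScreen with 125 nM GST-E1A and 125 nM His-CtBP (5X stocks) in Tris pH 8.0, 300 mM NaCl, BSA, Tween 20, TCEP. Compounds preincubated 2 h at 37 deg C, then glutathione donor/nickel acceptor beads added for 1 h at 37 deg C in dark.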
TRPV1 PAM – HTS Assay for Compounds that Act as Potentiators of the Vanilloid Receptor 1. TRPV1-expressing cells, Fluo-8 calcium influx, capsaicin EC20 potentiation; host cell line not named in the record; control for the full effect not named in the record. potentiation, % at 8.33 µM. actives 0.02% (n = 320,000). AID 540277, 2011; active means potentiation above 80%; inconclusive means 30% to 80%; inactive means below 30%; also: 0% is about no effect
Target sequence (Q8NER1 whole entry, looked up): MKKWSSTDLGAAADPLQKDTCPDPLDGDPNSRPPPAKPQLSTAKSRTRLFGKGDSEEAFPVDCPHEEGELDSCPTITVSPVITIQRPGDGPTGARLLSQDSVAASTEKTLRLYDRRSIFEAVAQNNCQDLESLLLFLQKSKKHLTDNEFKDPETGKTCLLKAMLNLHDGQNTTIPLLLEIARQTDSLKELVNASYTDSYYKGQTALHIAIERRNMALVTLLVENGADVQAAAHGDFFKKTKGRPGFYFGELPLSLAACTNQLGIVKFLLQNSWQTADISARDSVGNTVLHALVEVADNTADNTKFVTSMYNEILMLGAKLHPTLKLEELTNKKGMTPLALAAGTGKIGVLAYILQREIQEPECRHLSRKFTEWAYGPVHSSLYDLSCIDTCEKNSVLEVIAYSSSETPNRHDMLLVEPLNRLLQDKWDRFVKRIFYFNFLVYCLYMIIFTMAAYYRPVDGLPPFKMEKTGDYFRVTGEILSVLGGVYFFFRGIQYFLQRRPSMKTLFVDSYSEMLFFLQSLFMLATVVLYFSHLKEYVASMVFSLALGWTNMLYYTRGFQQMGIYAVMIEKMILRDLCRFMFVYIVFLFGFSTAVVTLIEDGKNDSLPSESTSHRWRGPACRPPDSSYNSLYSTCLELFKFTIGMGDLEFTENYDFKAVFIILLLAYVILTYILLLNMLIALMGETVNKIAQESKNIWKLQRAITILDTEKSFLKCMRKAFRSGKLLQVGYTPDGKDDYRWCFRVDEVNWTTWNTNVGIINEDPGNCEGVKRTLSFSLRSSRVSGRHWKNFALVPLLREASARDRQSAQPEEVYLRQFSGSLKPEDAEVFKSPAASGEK
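TRPV1-expressing cells were cultured overnight at 35.5C and loaded with Fluo-8 calcium dye for 40 to 90 min at room temperature. After a 10 s baseline, compound was added and calcium influx was read kinetically for 3 min (ex 480/em 520 nm).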
D2 agonist – Beta-Arrestin HTS for Positive Allosteric Modulators of the Human D2 Dopamine Receptor: Agonists. actives 0.084% (n = 360,000). D(2) dopamine receptor (Homo sapiens), P14416. activation, % (test concentration not listed). DiscoveRx PathHunter D2 beta-arrestin, luminescence, 90 min; 100% = 57 uM dopamine signal; in the data active = activation above about 40%; inconclusive = about 15% to 40%; inactive = below about 15%; also: compound concentration not given in the record; the text of the record calls up to 30% inactive
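Agonist mode: compounds alone added to overnight-plated D2 PathHunter cells for 90 min at 37 C, with 57 uM final dopamine (EC100) defining full response. Beta-arrestin recruitment detected by chemiluminescent reagent, read after 1 h at ambient temperature.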
Six1-Eya2 blk – qHTS Assay for Inhibitors of the Six1/Eya2 Interaction; activity change, % (no concentration beside the values); actives 0.56% (n = 360,000); AlphaScreen GST-Six1/His-Eya2 binding, biochemical; active compounds read low; control for the full effect not named in the record; Homeobox protein SIX1 (Homo sapiens) + Protein phosphatase EYA2 (Homo sapiens), …; in the data active = activity change below about -65%; inconclusive = about -30% to -65%; inactive = above about -30%; also: % is scaled to controls: 0 for no effect and ±100 for the full control effect
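Compounds are tested against tagged Six1 and Eya2 proteins bridged by glutathione donor and nickel acceptor beads; after a one-hour incubation at 37 °C without light, AlphaScreen emission is recorded.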
Sfp inh – qHTS Assay for Inhibitors of Bacillus subtilis Sfp phosphopantetheinyl transferase (PPTase); 4'-phosphopantetheinyl transferase ffp (Bacillus subtilis), Q9F4F7; actives 3.5% (n = 310,000); Potency, µM, inactives show max response, negative = inhibition, most hits filed as inhibitors; Biochemical Sfp PPTase activity, qHTS; active = well fitted inhibition curve with a large enough effect; inconclusive = small, poorly fitted or top-dose-only effect, or another doubt; inactive = no such curve, though single readings can be large or run the other way;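 also: the enzyme is Sfp with the accession as filed and its product quenches rhodamine fluorescence; potency is read from the fitted curve at half-maximal effect; 0% = enzyme reaction without inhibitor and -100% = no enzyme wells; top concentration of the series not given in the record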
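Fluorescence-quenching assay with 15 nM Sfp, 5 uM rhodamine-CoA and 12.5 uM BHQ-2-labelled ybbR peptide in pH 7.6 Hepes/MgCl2 buffer. Enzyme was pre-incubated with compound for 15 min at room temperature. Rate was taken from the 30-min fluorescence change (525/598 nm).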
PINK1 modulator – A Quantitative High throughput Screen to Identify Chemical Modulators of PINK1 Expression; AID 624263, 2012; Potency, µM (highest dose often 76.6 µM), for the others: at the highest dose activation (PINK1 increase), hits mostly activators; actives 0.2% (n = 410,000); PINK1 immunofluorescence, high-content cytometry, 24 h; active = well fitted activation curve with a large enough effect; inconclusive = small, poorly fitted or top-dose-only effect; inactive = flat fitted curve, though single readings scatter; cell line not stated here;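 also: potency is read from the fitted curve at half-maximal effect; % of control where 0% means no effect; nearly all actives have a fitted effect of over 65% in size; a mitochondrial uncoupler was the plate control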
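Readout is PINK1 immunofluorescence, quantified alongside mitochondrial, cell and nuclear markers by laser-scanning microplate cytometry. Cells from a stable line were exposed to compound titrations (5 concentrations) for 24 hours, with CCCP controls.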
D2 potentiator – Beta-Arrestin HTS for Positive Allosteric Modulators of the Human D2 Dopamine Receptor: Potentiators; D(2) dopamine receptor (Homo sapiens), P14416; DiscoveRx D2 beta-arrestin cells, luminescence, 90 min; 100% = 57 uM dopamine signal; potentiation, % (no concentration beside the values); actives 0.23% (n = 360,000); AID 624464, 2012; active = potentiation of 50% or more; inconclusive = 30% to 50%; inactive = 30% or less;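 also: compound concentration not given in the record; tested on top of an EC20 dose of dopamine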
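PathHunter D2 cells, attached overnight at 37 deg C, received compound in DMSO plus dopamine at EC20 (50 nM final) for 90 min at 37 deg C. Beta-arrestin recruitment was read as luminescence after 1 h with detection reagent at ambient temperature.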
Starred values were filed as active, the others as inactive; ? = inconclusive; / = not tested or not shown; & = joins results of further samples; [ ] = another dose, or the depositor's remark.

SMILES	CtBP-E1A blk	TRPV1 PAM	D2 agonist	Six1-Eya2 blk	Sfp inh	PINK1 modulator	D2 potentiator
Cc1occc1C(=O)NNC(=O)Nc1ccc([N+](=O)[O-])cc1	/	-4	-0.9	4	1%	-1.7%	6
CCCOc1cccc(C(=O)N2CCN(C(=O)C3CCCO3)CC2)c1 (stereo not given)	-12	4	0.3	6	18%	-0.2%	-1
COc1ccc(-c2nn(Cc3ccccc3)cc2C(=O)N2CCN(c3ncccn3)CC2)cc1	/	-4	0.0	-3	/	-0.5%	8
COc1ccc(NS(=O)(=O)c2ccc(O)c(NC(=O)c3cc4c(C)nn(-c5ccc(F)cc5)c4s3)c2)cc1	-4	-7	1.7	-13	5%	-0.6%	-12
CCC(C)NC(=O)c1ccccc1NC(=O)CN(c1ccc(OC)cc1)S(C)(=O)=O (stereo not given)	4	11	-2.9	2	6%	?	0
Cc1cc(C)n(CCNC(=O)c2cc(COc3c(F)cccc3F)on2)n1	0	5	0.0	4	10%	-1.0%	-2
CCCC(=O)NNc1c2ccccc2nc2ccccc12	-13	-2	-1.2	-11	-1%	1.9%	-17
O=C(/C=C/Nc1cccc(O)c1)c1ccccc1	-9	2	-1.0	-10	10%	/	0
O=C(NC(=S)N1CCCC(O)C1)c1ccco1 (stereo not given)	/	/	3.4	-2	/	4.2%	-1
CN(C)C(=O)COC(=O)c1ccccc1Sc1ccccc1C#N	4	-1	2.7	-2	-2%	2.4%	2
O=C(c1cccs1)N1CCC(Cc2ccccc2)CC1	8	-10	1.1	6	4%	-1.4%	-17
C=CCn1c(N)cc(=O)nc1SCC(=O)Nc1ccc2ccccc2c1	-2	17	-2.4	3	3%	-1.7%	-7
COc1ccc(-c2c3c(=O)n(C)c(=O)n(C)c3cn2-c2ccc(O)cc2)cc1	-16	-7	1.5	-2	-6%	-0.6%	3
COc1ccc(-n2c(Cc3cccn3C)nnc2SCC(N)=O)cc1	2	14	2.2	-2	?	0.9%	1
COc1ccc(OC)c(N(CC(=O)N2CCc3ccccc3C2)S(C)(=O)=O)c1	-14	-5	0.7	-5	13%	/	-9
Fc1cccc(NC(=S)NCCCN2CCOCC2)c1	-1	1	-0.8	1	12%	-0.1%	-17
CCOC(=O)Oc1ccc(/C=C2\N=C(C)OC2=O)cc1	0	3	1.3	0	-7%	2.8%	-1
O=C(Nc1ccccc1)c1ccc(=O)n(Cc2cccc(Cl)c2)c1	0	-9	7.4	-5	10%	2.1%	-2
O=C(Cc1ccc(Cl)cc1)NNC(=S)NC(=O)c1cccs1	-2	18	-10	-9	26%	6.7%	-11
COc1ccc(C(CNC(=O)COc2ccccc2C)N2CCCCC2)cc1 (stereo not given)	-23	-9	-2.6	5	/	-0.2%	-30
CCCCn1nnnc1C(CCSC)N1CCN(C/C=C/c2ccccc2)CC1 (stereo not given)	-8	/	-2.3	-12	/	-1.6%	-16
O=C1NC(Cc2c[nH]c3ccccc23)C(=O)N1CCOc1ccc(F)cc1 (stereo not given)	-1	-10	0.6	0	-6%	2.2%	-1
CCCn1c(N)c(C(=O)CN(C)CC(=O)Nc2c(Cl)cccc2Cl)c(=O)[nH]c1=O	5	-3	-1.1	4	/	0.1%	0
COC(=O)C[C@H]1C[C@H]2c3cc(NS(=O)(=O)c4ccc(OC)cc4)ccc3O[C@H]2[C@H](CO)O1	-13	/	-11	5	/	-0.4%	-1
CCCSc1ccc2nc(NC(=O)OC)[nH]c2c1	2	26	-0.9	4	-5%&12%&9%	12%&9.8%	4
Cc1ccc(S(=O)(=O)NC(=O)N2CCCC(C)(C)C2)cc1	3	10	-0.2	-1	12%	1.4%	-2
CS(=O)(=O)c1ccc2nc(NC(=O)CN3CCN(Cc4ccccc4)CC3)sc2c1	1	1	-1.1	-3	10%	0.4%[38.3 µM]	-15
O=C(O)/C=C\C(=O)Nc1ccccc1C#Cc1ccccc1	9	?	-1.6	12	-10%	-5.9%[38.3 µM]	-10
O=C(Nc1nc2ccccc2n1CCOc1ccccc1)c1ccco1	-6	-25	-3.2	-11	-3%	8.4%	-11
CC(C)c1ccc(-c2nnc(N)s2)cc1	0	-4	-1.4	21	?	0.5%	-4
NC(=O)c1ccccc1OCc1nc2ccccc2s1	2	-1	-4.8	5	2%	-0.7%	-7
CC1CCN(C2CCN(S(=O)(=O)c3ccc(C(F)(F)F)cc3)CC2)CC1	4	6	-1.8	3	3%	-0.8%	-3
Cc1nn(-c2ccc(Cl)cc2)c2[nH]c(=O)c(CNCc3ccc4c(c3)OCO4)cc12	-3	20	-8.3	-10	8%	0.3%	-13
Nc1cc(Cl)ccc1C(=O)OCC(=O)NC(=O)NCc1ccccc1	-2	3	-5.9	-6	-10%	3.1%	-25
O=C(Nc1ncccc1Cl)c1cc2ccccc2o1	/	2	2.7	0	-4%	0.6%	-9
COC(=O)[C@H](C)N(Cc1ccc(Cl)c(Cl)c1)S(=O)(=O)CCNC1CCCC1	2	/	-2.5	-1	/	2.3%	/
COc1cc(N=c2c([N+](=O)[O-])nn(-c3ccc4c(c3)OCCO4)n2O)cc(OC)c1	?	-14	9.4	-19	-4%	-2.1%	68*
COc1ccc2oc(=O)c(C(=O)Nc3ccccc3O)cc2c1	1	26	-2.1	-6	-14%	3.0%	-5
COc1ccc2nc(N3CCOCC3)cc(C)c2c1	5	2	-1.3	6	-5%	/	-8
COc1ccc(NS(=O)(=O)c2ccc3[nH]c(=O)[nH]c3c2)cc1OC	-12	8	-3.4	5	-4%	2.4%	-4
CC(=O)Nc1ccc(C(=S)NCc2ccco2)cc1	-1	9	-3.9	-4	-6%	-2.3%	-4
CCC(=O)c1c(NCCc2ccccc2)cc(C)oc1=O	2	-19	-1.1	3	-4%	-0.6%	-2
CCOC(=O)c1c(NC(=O)c2ccc(N3C(=O)C4C5C=CC(C5)C4C3=O)cc2)sc2c1CCCC2 (stereo not given)	5	6	-0.1	-2	-6%	4.4%	6
CC(=O)Nc1ccc(NC(=O)C(C)OC(=O)c2c(C)nn(-c3ccccc3)c2Cl)cc1 (stereo not given)	2	-7	1.1	-3	/	1.7%	-16
COc1ccc(C(=O)NNC(=O)C(=O)N2CCCCC2)cc1OC	2	2	-4.4	9	-5%	0.0%	-23
Cc1ccccc1S(=O)(=O)NC(=NCc1ccc(F)cc1)c1ccccc1	5	/	-2.9	2	/	-0.1%	-7
CC1CN(C2CCN(C(=O)c3cccc(Cl)c3)CC2)CC(C)O1 (stereo not given)	4	-6	-1.5	1	-22%	-0.1%	2
C[C@@H](NC(=O)[C@@H]1Cc2ccccc2CN1C(=O)OC(C)(C)C)C(=O)NCc1ccco1	-8	3	3.9	4	7%	-1.4%	-4
CCc1ccc(OCc2nnc(SCc3ccc(C(=O)O)cc3)o2)cc1	-4	0	2.9	-2	0%	0.6%	2
COC(=O)C1=C(C)N(Cc2ccc(C)cc2)C(=O)/C1=C\c1cc(OC)c(OC)c(OC)c1	2	6	3.1	-2	-16%	6.4%	-3
CC(C)(C)Sc1ccc2nc3c(n2c1)CCCC3	-5	-12	2.3	-14	-12%	-0.4%	-13
CN1/C(=C\C(=O)Nc2ccc(F)cc2)C(C)(C)c2ccccc21	-6	-2	-2.9	-10	0%	2.0%	-19
COC(=O)c1c(NC(=O)/C=C/C(=O)O)sc(Cc2ccccc2)c1C	6	15	-4.3	-7	0%	-2.7%	-17
COc1ccc(NC(=O)COc2cccc3c2CCNC3=O)cc1	-3	?	-4.4	2	/	-1.4%	3
C=CCNCCCCOc1ccc(C)cc1[N+](=O)[O-]	1	5	0.0	4	-13%	0.7%	-41
Cc1ccc(C(c2sc3nc(C)nn3c2O)N2CCN(c3ccccc3F)CC2)cc1 (stereo not given)	-12	6	-5.7	-14	9%	-0.3%	-13
OCC1(Cc2cccc(C(F)(F)F)c2)CCN(Cc2cc(F)cc(F)c2)CC1	4	-13	2.2	-2	25%	-2.1%	-17
O=Cc1ccc(N2N=C(c3ccccc3)CC2c2ccccc2)cc1 (stereo not given)	24	-18	4.1	94	-11%	-0.3%	-6
O=C(Cn1cnc2ccccc2c1=O)NCC1COc2ccccc2O1 (stereo not given)	0	22	-1.6	-1	-5%	1.0%	7
Cc1cccc(C)c1Nc1nnc(SCC(=O)Nc2cc(S(=O)(=O)N3CCCCC3)ccc2Cl)s1	-22	8	-3.3	-11	13%	-0.2%	-29

A stretch of the results above:
SMILES	CtBP-E1A blk	TRPV1 PAM	D2 agonist	Six1-Eya2 blk	Sfp inh	PINK1 modulator	D2 potentiator
COc1ccc(NC(=O)COc2cccc3c2CCNC3=O)cc1	-3	?	-4.4	2	/	-1.4%	3
C=CCNCCCCOc1ccc(C)cc1[N+](=O)[O-]	1	5	0.0	4	-13%	0.7%	-41
Cc1ccc(C(c2sc3nc(C)nn3c2O)N2CCN(c3ccccc3F)CC2)cc1 (stereo not given)	-12	6	-5.7	-14	9%	-0.3%	-13
OCC1(Cc2cccc(C(F)(F)F)c2)CCN(Cc2cc(F)cc(F)c2)CC1	4	-13	2.2	-2	25%	-2.1%	-17

Additional compounds follow:
SMILES	CtBP-E1A blk	TRPV1 PAM	D2 agonist	Six1-Eya2 blk	Sfp inh	PINK1 modulator	D2 potentiator
CCc1cc2c(=O)c(-c3ccc4c(c3)OCCO4)coc2cc1OS(C)(=O)=O	-20	4	2.6	-10	-10%	2.6%	-1
COc1ccc(/C=C/C(=O)Nc2ccccc2Cl)cc1S(=O)(=O)N1CCOCC1	6	6	2.3	21	14%	1.6%	-6
c1cc2c(cc1CN1CCN(C3CCCCCC3)CC1)OCO2	-3	-10	2.6	0	56µM*	-2.0%	-14
COc1cccc(C2N(c3cccc(Cl)c3)C(=O)C3CCCN32)c1OC (stereo not given)	-15	-6	9.5	-16	7%	0.9%	-3
COc1ccc2[nH]c(=O)c(C(c3nnnn3CC3CCCO3)N3CCCCC3)cc2c1 (stereo not given)	-11	-15	5.4	-1	12%	-0.2%	7
